# UCH37 inh – inhibitors of human deubiquitinating enzyme UCH37. 330,000 compounds, 0.33% hits. purified proteasome/UCH37, Ub-AMC cleavage fluorescence. Q9Y5K5. inhibition, % (concentration not given with the values). AID 588478;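 active means mean of two replicates above 20%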;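 further: 0% = compound-free wells with enzyme and 100% = wells lacking proteasome; stock transfer was 100 nL into about 20 µL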
#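 Material: human UCH37 enzyme supplied as purified proteasome complex / Amount: 0.15 nM proteasome as dispensed / Buffer or medium: pH 7.4 Tris-HCl (50 mM) with ovalbumin, ATP-MgCl2, DTT / Times: preincubation 30 min, reaction 25 min, room temperature / Technique: AMC fluorescence from Ub-AMC cleavage, excitation 355 nm, emission 460 nm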
# A1 inh – inhibitors of the anti-apoptotic protein A1, read as caspase activation; caspase activation, % (test concentration not listed); MEF A1-2A-BIM cells, Caspase-Glo 3/7 luminescence, 3 h; percent of clofoctol response, vehicle zero; 330,000 compounds, 0.066% hits;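 active means over half of replicate activation scores above 10%, or exactly half above 10 with the replicate mean above 10; inconclusive means replicate mean below 10 yet half the replicates above 10; inactive means over half of replicates below 10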;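 further: wells of about 30 µL received 50 nL stock; many hits fall short of the cut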
# Beta2AR agonist – human beta-2 adrenergic receptor agonism by FAP; P07550; Am2.2-beta2AR cells, FAP receptor internalization, flow cytometry; reference of the scale not given here; response, % (test concentration not listed); 340,000 compounds, 0.43% hits; AID 504454;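 active means response above a set limit, near 3 SD of response in nonfluorescent compounds, cut at about 42% in these data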;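 further: stock transfer was 100 nL into about 11 µL; a reference agonist was the positive control; negative values mostly stem from fluorescent compounds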
# RanGTP-Impb inh – disruptors of Ran-importin-beta complex formation – biochemical, FRET, CFP-Ran, YFP-importin-beta, homogeneous, primary screen. cell-free CFP-Ran/YFP-importin-beta FRET ratio. inhibition, % (test concentration not listed). 300,000 compounds, 1.1% hits. AID 2216;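 active means most replicates above 15%; inconclusive means exactly half above 15%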;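 further: 0% = DMSO wells and 100% = Ran loaded with GDP instead of GTP; wells of about 40 µL received 100 nL stock; the first replicate is given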
# Calb FLC – C. albicans growth modulation with fluconazole; C. albicans CaCi-2 (fluconazole-resistant clinical isolate) + fluconazole, Alamar Blue growth, 48 h; growth inhibition, % (no concentration beside the values); 300,000 compounds, 0.57% hits; AID 1979;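 active means most replicates above 75%; inconclusive means exactly half above 75%; inactive means most below 75%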;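 further: all wells also contain fluconazole at 8 µg/ml as a sub-toxic cotreatment; 0% = median of DMSO wells and 100% = median of geldanamycin control wells; wells of about 8 µL received 7.5 nL stock; the first replicate is given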
# LANA-H2A inh – blocks KSHV LANA binding to histone H2A/H2B; inhibition, % (no concentration beside the values); cell-free LANA-H2A/H2B peptide, fluorescence polarization; Q9QR71; 320,000 compounds, 0.6% hits; in the data active means inhibition mostly above about 10%, no sharp cut-off; inactive means mostly below about 6.7%;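 further: stock transfer was 7.5 nL into about 10 µL; 0% = median of vehicle wells and 100% = median of positive control wells; one replicate is shown; the record names a cut of 25% in any replicate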
# Target sequence (Q9QR71 whole entry, looked up): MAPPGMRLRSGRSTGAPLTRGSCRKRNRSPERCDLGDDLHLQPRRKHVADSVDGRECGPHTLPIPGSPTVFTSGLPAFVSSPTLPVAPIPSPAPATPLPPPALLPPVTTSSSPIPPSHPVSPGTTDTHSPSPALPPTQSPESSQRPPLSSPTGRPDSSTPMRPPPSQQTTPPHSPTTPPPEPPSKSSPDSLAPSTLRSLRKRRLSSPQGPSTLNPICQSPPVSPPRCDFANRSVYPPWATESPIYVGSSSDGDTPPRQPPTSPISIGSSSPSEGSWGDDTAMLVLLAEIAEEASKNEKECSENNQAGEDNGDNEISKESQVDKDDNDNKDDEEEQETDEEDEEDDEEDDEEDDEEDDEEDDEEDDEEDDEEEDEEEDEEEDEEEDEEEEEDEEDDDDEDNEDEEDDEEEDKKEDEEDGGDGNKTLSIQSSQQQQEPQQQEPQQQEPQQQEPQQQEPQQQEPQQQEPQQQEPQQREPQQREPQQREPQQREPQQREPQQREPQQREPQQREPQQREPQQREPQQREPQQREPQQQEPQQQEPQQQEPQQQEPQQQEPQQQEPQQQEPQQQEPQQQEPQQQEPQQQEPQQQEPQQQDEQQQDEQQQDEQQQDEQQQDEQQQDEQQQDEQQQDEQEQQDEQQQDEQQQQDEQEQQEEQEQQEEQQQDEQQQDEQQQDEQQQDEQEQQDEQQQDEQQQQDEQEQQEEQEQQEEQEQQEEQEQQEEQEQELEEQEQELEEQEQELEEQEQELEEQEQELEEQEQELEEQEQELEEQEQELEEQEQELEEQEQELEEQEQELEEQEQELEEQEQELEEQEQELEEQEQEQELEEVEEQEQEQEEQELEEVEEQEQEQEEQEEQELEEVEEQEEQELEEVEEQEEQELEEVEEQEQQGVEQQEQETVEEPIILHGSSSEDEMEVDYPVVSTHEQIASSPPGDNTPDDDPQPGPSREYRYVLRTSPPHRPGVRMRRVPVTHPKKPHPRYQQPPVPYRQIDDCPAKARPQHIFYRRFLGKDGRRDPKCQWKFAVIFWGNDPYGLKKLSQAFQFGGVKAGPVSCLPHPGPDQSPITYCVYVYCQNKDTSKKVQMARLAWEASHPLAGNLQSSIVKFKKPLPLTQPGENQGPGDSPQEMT
# Beta cell apopt – blocks beta cell apoptosis; protection from apoptosis, % (test concentration not listed); 300,000 compounds, 0.8% hits; AID 435005; INS-1E cytokine-induced death, ATP luminescence, 48 h; percent of positive-control rescue, neutral wells zero;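 active means all replicates at 75% or more, or half of them and the mean; inconclusive means half reach 75% but not the mean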;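 further: 0% = cytokine-treated negative control wells and 100% = positive control rescue; higher means more ATP so stronger rescue from cytokine killing; wells of about 40 µL received 100 nL stock; the first replicate is given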
# T cruzi repl – blocks replication of Trypanosoma cruzi | T. cruzi beta-gal in NIH3T3, luminescence, 90 h | inhibition, % (no concentration beside the values) | 300,000 compounds, 1.4% hits;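 active means mean inhibition across valid replicates above about 55%, limit read from the data; inconclusive means mean below that limit but half or more replicates reach it; inactive means mean below it, under half of replicates reach it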;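 further: signal also drops with host cell toxicity which is not excluded here; 0% = plate median of DMSO wells and 100% = zero luminescence signal; higher percent means less beta-gal luminescence so fewer parasites; stock transfer was 50 nL into about 50 µL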
# An asterisk follows results filed as active; ? = inconclusive; . = no result given.
SMILES,UCH37 inh,A1 inh,Beta2AR agonist,RanGTP-Impb inh,Calb FLC,LANA-H2A inh,Beta cell apopt,T cruzi repl
CC1(C)N([O-])C2=C(CCCC2)[N+]1=O,6.8,.,-9,3.1,3,.,.,-12
Cc1cccc(NC(=O)c2cc3c(=O)n4ccccc4nc3n(CC(C)C)c2=N)c1,9.4,0.4,-5,1.9,15,0.0,2,12
Cc1ccc(NS(=O)(=O)c2coc(C(N)=O)c2)cc1F,0.0,-0.9,10,-1.0,-10,1.7,-2,-9
CC1(C)Cc2c(c(-c3ccccc3)nc3sc4c(=O)[nH]c(=S)[nH]c4c23)CO1,3.1,0.8,.,1.1,5,-6.8,-11,-9
CCCCCn1c(C(Cc2ccccc2)NC(C)=O)nc2ccccc21 (stereo not given),0.9,-0.2,3,?,-2,2.4,-8,1
CC1CC(C)CN(CCCCOc2ccc([N+](=O)[O-])cc2)C1 (stereo not given),0.9,2.0,1,-3.3,6,-1.7,0,42
O=C(CN(C(=O)Cn1nnc(-c2ccccc2F)n1)c1cccc2c1CCCC2)NCc1ccccc1,1.6,0.3,5,6.0,-32,-4.4,-1,19
OCCCNc1cc(-c2ccnc(Nc3cccc(Cl)c3)n2)ccn1,-5.4,-1.8,24,-3.2,114*,7.2,-36,50
COc1cc(C(CC(=O)N2CCN(c3ccccc3)CC2)c2c(OC)cc(OC)c3ccc(=O)oc23)cc(OC)c1OC (stereo not given),3.3,0.6,5,3.7,-1,-9.5,0,3
COc1cc(-c2nnc(SCC(=O)O)n2-c2ccccc2)cc(OC)c1OC,.,0.6,-8,0.9,5,0.9,.,-14
O=C(NCCC1=CCCCC1)c1ccc(=O)oc1,14,-0.5,-3,-1.9,-4,-1.6,-4,-11
CCN(CC)C(=O)C1=C(C)Nc2nnnn2C1c1cccnc1 (stereo not given),0.9,0.3,-2,4.3,4,-1.9,-6,-9
COc1ccc(N2CCN(C(c3ccc4ncccc4c3)c3nnnn3C(C)C)CC2)cc1 (stereo not given),3.3,1.2,-8,2.6,5,1.3,2,-1
O=C(NCc1cccnc1)C1CCCCN1S(=O)(=O)c1ccc(F)cc1 (stereo not given),-0.9,0.4,26,2.4,?,7.9,-5,-23
Cc1ccc(C(=O)Nc2c(C)n(C)n(-c3ccccc3)c2=O)cc1,-2.7,-0.1,-2,-0.2,19,-1.4,4,-19
O=C(NC1CC2CCCC(C1)N2Cc1ccccc1)c1cccc(Cl)c1 (stereo not given),3.0,0.3,2,1.4,-8,2.8,-2,1
O=C(/C=C/c1ccco1)NC(=S)Nc1cc(C(F)(F)F)ccc1N1CCOCC1,3.6,-0.3,-1,5.2,-1,1.5,0,29
COc1ccc(NC(=O)CSCC(=O)Nc2ccccc2N2CCCCC2)cc1,3.5,-0.4,5,0.1,4,-0.2,.,-11
Cn1c(=O)oc2cc(S(=O)(=O)NC3CCCCCCC3)ccc21,-0.3,0.0,-26,-0.9,10,-7.5,-9,-26
O=C(NCC(=O)N(CC1CCCO1)C1(C(=O)NC2CCCCC2)CCCCC1)c1ccccc1 (stereo not given),4.0,0.5,-21,0.4,-1,-0.8,2,1
CCOC(=O)C(NC(=O)NCc1cccc(C(F)(F)F)c1)(OCC)C(F)(F)F (stereo not given),0.0,-0.3,-3,-0.9,-9,-6.9,8,9
COc1cc(NC(=O)c2ccc(N3CCCC3=O)cc2)cc(OC)c1,2.1,-12,7,.,.,-5.4,-4,.
Cc1cccc(NC(=O)C23CCC(C)(/C(=N/O)C2)C3(C)C)c1 (stereo not given),.,0.0,7,-1.4,0,-6.0,2,11
Cc1cccc(C)c1N(CC(=O)NCc1ccc(F)cc1)C(=O)c1csnn1,-0.5,0.0,0,-2.3,1,-8.2,6,9
COc1ccccc1C(N)=S,5.3,0.4,2,4.7,-8,-1.1,-2,-19

# Reprinted from the part before: two entries, then new ones.
SMILES,UCH37 inh,A1 inh,Beta2AR agonist,RanGTP-Impb inh,Calb FLC,LANA-H2A inh,Beta cell apopt,T cruzi repl
Cc1cccc(C)c1N(CC(=O)NCc1ccc(F)cc1)C(=O)c1csnn1,-0.5,0.0,0,-2.3,1,-8.2,6,9
COc1ccccc1C(N)=S,5.3,0.4,2,4.7,-8,-1.1,-2,-19
O=S(=O)(c1ccc(Br)cc1)N1CCN=C1SCc1cccnc1,2.2,0.9,-20,0.5,?,-2.0,-7,-6
O=C(c1cnn(C(=O)c2cccc(S(=O)(=O)N3CCOCC3)c2)c1)c1ccccc1O,-16,0.8,-3,0.5,26,2.6,-16,-7
CC(C)(CNc1ccc([N+](=O)[O-])cc1Cl)N1CCOCC1,3.3,0.8,-4,-0.5,15,2.2,-2,-3
COC(=O)C1CN(S(=O)(=O)c2ccc(C)cc2)CCN1S(=O)(=O)c1ccc(C)cc1 (stereo not given),2.5,-0.7,-2,-5.7,41,3.4,-1,6
Cc1ccccc1C(=O)Nc1ccc(S(=O)(=O)N2CCOCC2)cc1,1.8,0.1,-1,3.5,-4,0.8,2,-3
CCOc1ccc(-n2c(N)c(C(=O)NCC3CCCO3)sc2=S)cc1 (stereo not given),8.8,0.7,-3,2.0,2,3.5,-4,7
CCCCn1c(CN2CCN(C(=O)OCC)CC2)nc2c1c(=O)[nH]c(=O)n2C,0.7,-0.1,3,1.2,-17,-9.4,-2,2
CC(=O)c1c(OCC(=O)N(C)C2CCCCC2)ccc2c(C)cc(=O)oc12,-4.1,-1.1,5,.,.,1.1,-3,.
Cc1c(C(=O)NCC2CCCO2)cccc1[N+](=O)[O-] (stereo not given),6.7,1.3,0,1.7,10,2.8,2,-7
Cc1ccc2c(c1)C(c1ccccc1)N(C(=O)c1ccc(Br)cc1)CC(=O)N2 (stereo not given),5.1,0.9,-15,-0.4,18,-1.1,3,8
CCOC(=O)c1sc(=NC(=O)/C=C/c2ccccc2)n(C)c1C,-19,1.1,3,-0.7,0,2.3,7,-3
c1ccc(Cc2nnc3sc(-c4ccc5c(c4)OCCO5)nn23)cc1,1.9,-0.1,-18,-1.2,25,3.5,-8,-7
CC(NC(=O)Cc1ccccc1)C(=O)O (stereo not given),3.1,-0.1,-4,.,.,-1.5,-12,.
CCN1CCN(CCC2Oc3cc([N+](=O)[O-])ccc3NC2=O)CC1 (stereo not given),11,1.1,2,?,12,-1.1,-2,5
COC1CCCCC1NS(=O)(=O)c1ccccc1 (stereo not given),2.9,-0.6,2,-1.2,-10,4.0,0,-11
COc1ccc2oc(=O)c(C(C)=O)cc2c1,-39,-0.1,-6,-15,26,-0.5,0,-9
NNC(=O)CCc1nc2ccc(O)cc2[nH]1,.,-0.5,-3,-1.2,56,13*,-2,-15
CC1CCCCC1NCC(=O)Nc1ccccc1-c1ccccc1 (stereo not given),5.6,0.3,0,.,.,6.0,-1,.
O=C(NCc1ccccc1Cl)c1ccc2nnsc2c1,4.9,-0.5,-3,5.2,-25,3.0,-1,5
O=C(N1CCN(c2cccc(Cl)c2)CC1)C1(c2cccs2)CCOCC1,2.6,-0.2,-10,3.1,20,-5.5,8,5
C[C@H](NC(=O)c1nc[nH]c1C(=O)N[C@@H](Cc1ccccc1)C(=O)OCc1ccccc1)c1ccccc1,5.9,0.7,11,1.7,9,0.5,-1,-2
O=C1OC(Nc2nc(-c3ccc(F)cc3)cs2)c2ccccc21 (stereo not given),2.8,1.5,22,8.7,-7,2.4,21,-8
CCOc1ccc(NC(=O)CSc2nncn2C)cc1,5.6,-0.4,-2,-0.1,7,7.0,.,-8
Cc1cc(S(=O)(=O)N2CCN=C2c2ccccc2)c(C)cc1Cl,3.1,1.3,5,3.4,39,-7.3,-1,-4
Cc1sc2ncnc(N3CCC(C(=O)N(C)CC(=O)Nc4ccc(Cl)c(C(F)(F)F)c4)CC3)c2c1C,1.8,-1.1,14,5.2,-1,-0.8,.,58*

# Look-ups from the results shown.
# Entry of O=C(NCc1ccccc1Cl)c1ccc2nnsc2c1 under Beta2AR agonist: -3
# Entry of O=C(c1cnn(C(=O)c2cccc(S(=O)(=O)N3CCOCC3)c2)c1)c1ccccc1O under Beta2AR agonist: -3

# Additional compounds:
SMILES,UCH37 inh,A1 inh,Beta2AR agonist,RanGTP-Impb inh,Calb FLC,LANA-H2A inh,Beta cell apopt,T cruzi repl
CC(=O)CCc1ccccc1,1.1,0.5,-5,.,.,-3.0,-6,.
CNC(=O)NC(=O)C(C)N1CCN(C/C=C/c2ccccc2)CC1 (stereo not given),-0.8,0.3,-26,-0.2,-14,2.3,-4,14
Cc1c(O)ccc(-c2[nH]ncc2-c2nc3ccccc3s2)c1O,-2.3,1.8,-3,3.0,8,1.1,-1,5
O=C1NCCOC(=O)[C@@H](Cc2ccc(F)cc2)C/C=C\C[C@@H]1CC(=O)N(CCO)Cc1ccccc1,2.3,0.8,7,.,.,-0.6,0,.
O=C(COc1ncnc2ccc(Br)cc12)NCc1ccco1,4.2,-1.0,-10,0.5,-1,4.5,0,-6
CS(=O)(=O)Cc1cccc(C(=O)NN(c2ccccc2)c2ccccc2)c1,3.5,0.9,10,-2.5,0,2.1,.,-3
NC(=S)NNC(=O)c1ccccc1Cl,2.4,0.4,5,1.5,-16,0.5,-6,-13
Cc1cc(C)cc(NC(=O)C2CCCN2S(=O)(=O)c2cccc3cccnc23)c1 (stereo not given),6.2,1.6,4,1.8,-20,0.3,-5,-2
Cc1ccc(NC(=O)N2CCC(NC(=O)c3ccco3)CC2)cc1,1.1,0.1,7,3.8,-9,-0.5,1,-15
CCN(CC(=O)N1CCN(c2ccccc2)CC1)S(=O)(=O)c1ccc(C)cc1,1.2,0.0,28,1.3,2,-3.4,1,8
c1cn(CCCNC2CCCCCCC2)cn1,3.6,1.1,-4,-2.7,0,2.0,3,-29
Cc1nn(C)c(C)c1/C=N/N=C1\CCC2C3CCc4cc(O)ccc4C3CCC12C (stereo not given),.,-0.1,8,0.3,-4,0.4,-5,16
COc1cccc(N2C(=O)CC(N3CCC(C(N)=O)(N4CCCCC4)CC3)C2=O)c1 (stereo not given),3.9,0.4,-9,-3.8,?,1.5,-3,-12
Cc1nc2ccc(NC(=O)c3ccc(Br)o3)cc2s1,6.7,-4.5,-3,-0.7,-2,-12,0,-13
CCc1nc2n(n1)C(O)c1cc([N+](=O)[O-])ccc1S2 (stereo not given),6.4,-0.3,2,-1.5,2,0.6,3,-15
Cc1nnc2n(Cc3ccccc3)c(=O)c3c4c(sc3n12)COC(C(C)C)C4 (stereo not given),-2.4,1.1,-9,-5.8,20,-4.1,0,7
CC1(C)Cc2c(C#N)c(SCc3nc4ccccc4[nH]3)nc(N3CCOCC3)c2CO1,-86,0.0,-8,7.7,21,10,4,23
C=CCn1c(C(CCC(C)C)CC(C)(C)O)n[nH]c1=S (stereo not given),3.0,0.6,3,5.2,-33,3.3,0,7
CNC(=O)c1c(C)noc1C,2.2,1.5,0,-1.3,3,0.2,.,-20
CCC(C)NC(=O)Cn1c(-c2ccccc2)cc(C(C)=O)c1C (stereo not given),1.8,0.4,-35,6.6,-50,-0.4,-9,-16
